Compound activity from PubChem BioAssay.
Rango-impB inh – Rango-importin beta binding inhibition; Q14974; Rango CFP/YFP FRET sensor + importin beta, 45 min; Potency, µM (titrated, usually from 92.2 µM), inactives show top-dose inhibition of complex formation; actives 0.031% (n = 340,000); AID 540263; active = rising FRET ratio curve, often small or poorly fitted; inconclusive = mostly compound fluorescence or quenching in the first reads; inactive = flat curves in all reads;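 also: potency is read from the fitted curve at half-maximal effect; 0% = DMSO wells and 100% = buffer wells lacking importin beta; nearly all actives have a fitted effect of over 15% in size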
Target sequence (Q14974 whole entry, looked up): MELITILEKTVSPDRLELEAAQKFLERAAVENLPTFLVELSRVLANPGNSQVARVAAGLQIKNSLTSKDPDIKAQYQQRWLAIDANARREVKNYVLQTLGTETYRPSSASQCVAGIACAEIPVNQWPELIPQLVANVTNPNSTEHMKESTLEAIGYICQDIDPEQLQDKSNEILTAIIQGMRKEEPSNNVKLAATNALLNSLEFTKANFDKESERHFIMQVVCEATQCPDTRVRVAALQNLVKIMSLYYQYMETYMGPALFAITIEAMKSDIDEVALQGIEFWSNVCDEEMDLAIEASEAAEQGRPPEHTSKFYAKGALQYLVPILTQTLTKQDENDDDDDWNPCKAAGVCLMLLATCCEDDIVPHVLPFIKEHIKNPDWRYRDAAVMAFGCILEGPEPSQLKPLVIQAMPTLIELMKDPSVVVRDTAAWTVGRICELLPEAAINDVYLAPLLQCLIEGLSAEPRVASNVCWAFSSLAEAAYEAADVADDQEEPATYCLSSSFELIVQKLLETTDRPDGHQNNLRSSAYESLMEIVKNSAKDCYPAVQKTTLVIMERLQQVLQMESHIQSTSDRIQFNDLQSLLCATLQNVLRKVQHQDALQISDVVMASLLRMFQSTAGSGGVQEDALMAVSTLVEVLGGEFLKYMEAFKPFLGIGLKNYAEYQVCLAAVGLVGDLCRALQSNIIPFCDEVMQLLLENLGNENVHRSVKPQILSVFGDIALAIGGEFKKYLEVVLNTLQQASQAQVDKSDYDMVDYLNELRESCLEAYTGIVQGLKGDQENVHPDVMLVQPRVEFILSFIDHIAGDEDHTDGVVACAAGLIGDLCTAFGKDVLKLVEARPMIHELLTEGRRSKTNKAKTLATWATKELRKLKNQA
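FRET biosensor (snurportin 1 IBB flanked by EYFP and cerulean), 50 nM, with compound 5 min, then 0.125 microM importin beta in PBS, 1 mM DTT, 0.02% Tween-20, 0.1% BSA. CFP/YFP ratio read after 45 min at room temperature; pre-read flags interference.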
GLA inh pH 4.5 – alpha-galactosidase A (human) inhibition, pH 4.5; purified enzyme, 4-MU-alpha-Gal fluorescence, pH 4.5; 230,000 tested, under 10 active; P06280; AID 1467; activity change, negative = inhibition, % at 105 µM; inconclusive = small, poorly fitted or top-dose-only inhibition, or a rising curve; inactive = flat fitted curve, though single readings scatter; no compound was filed as active;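 also: 0% = full activity with enzyme and -100% = basal without enzyme; dose as in the result columns while the protocol names 77 µM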
Rango release inh – prevents RanGTP from dissociating the Rango-importin beta complex; actives 0.071% (n = 340,000); Potency, µM (highest dose often 46.1 µM), for the others: top-dose activity change, negative = inhibition; Biochemical FRET Rango-importin beta, RanGTP-induced dissociation; O95149+P62826; AID 540253; active means falling FRET ratio curve, often poorly fitted, with flat reads before Ran was added; inconclusive means other falling curves, or compound fluorescence or quenching; inactive means flat or rising ratio curve;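 also: potency is read from the fitted curve at half-maximal effect; % of control where 0% means no effect; nearly all actives have a fitted effect of over 45% in size; -100% = wells without RanGTP and RCC1; the record marks most hits as doubtful in a second field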
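Recombinant Rango FRET biosensor (EYFP–snurportin 1 IBB–cerulean CFP10) at 0.1 uM premixed with 0.25 uM importin beta in PBS, 1 mM DTT, 0.02% Tween-20, 0.1% BSA. Compound added 5 min; RanGTP-RCC1 (0.6 uM Ran, 2 mM GTP, 0.2 uM RCC1) then triggers release, read at 45 min.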
miR-21 reporter – miR-21 reporter, rising signal. AID 2288. 340,000 tested, under 10 active. HeLa miR-21 FLuc reporter, luciferase, 48 h. Potency, µM (top dose mostly 38.3 µM), inactives show top-dose reporter change, positive = more light; active = well fitted rising curve with a large enough effect; inconclusive = small, poorly fitted or top-dose-only effect; inactive = no such curve, though single readings can be large or run the other way;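 also: % of control where 0% means no effect; miR-21 action dims this reporter so a rising signal means less miR-21 action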
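HeLa cells stably expressing CMV-driven firefly luciferase with a downstream miR-21 binding sequence, endogenously expressing miR-21, were treated with titrations (up to about 40uM final) for 48 hours at 37 degree Celsius. Luciferase luminescence was read after lysis.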
Starred values were filed as active, the others as inactive; ? = inconclusive; nt = not tested or not shown. A portion of the library, so the mix of outcomes need not match the whole.

The line under a structure holds: Rango-impB inh, GLA inh pH 4.5, Rango release inh, miR-21 reporter
[1] COc1ccc(C(=O)OC(C)C(=O)NCC2CCCCC2)cc1S(=O)(=O)N1CCOCC1 (stereo unspecified)
→ -1.9%, nt, 8%, nt
[2] CNC(=O)N(O)C1N(/N=C/c2c(F)cccc2Cl)C(=S)SC1(C)C (stereo unspecified)
→ -5.0%, nt, -6%, 2%
[3] CN(C(=O)c1cccc(Nc2ccc(-c3ccc4c(c3)OCCO4)nn2)c1)C1CCCCC1
→ 0.1%, -10, -9%, 29%
[4] CC(=NCC1CCCO1)c1c(O)[nH]c(=O)[nH]c1=O (stereo unspecified)
→ 0.8%, 9, 1%, -8%
[5] CSc1nc2n(n1)C(c1cccs1)C1=C(CCCC1=O)N2 (stereo unspecified)
→ -4.9%, 27, -2%, 4%
[6] Cc1ccnc(NC2(C(F)(F)F)N=C(c3ccccc3)NC2=O)c1 (stereo unspecified)
→ 1.1%, 7, -1%, -11%
[7] CCC(C)(C)NC(=O)C(c1ccc(F)cc1)N(CCOC)C(=O)CCC(=O)Nc1nccs1 (stereo unspecified)
→ 0.9%, nt, -3%, -2%
[8] Cc1onc(-c2ccccc2Cl)c1C(=O)N1CCOC12CCN(c1cccc(F)n1)CC2
→ 0.6%, 2, -4%, -7%
[9] O=C(O)c1ccc(S(=O)(=O)N2CCCCCC2)cc1
→ -2.7%, -1, 18%, 2%
[10] CCN(CC)S(=O)(=O)c1ccc(N2CCOCC2)c(NC(=O)CC2OC(=O)c3ccccc32)c1 (stereo unspecified)
→ -4.4%, nt, 0%, nt
[11] NCCc1nnc(SCC(=O)Nc2ccc(Br)cc2)o1
→ 4.7%, nt, 18%, -1%
[12] COc1ccc(C2C(C#N)=C(N)Oc3c2oc(CO)cc3=O)c(OC)c1OC (stereo unspecified)
→ -4.1%, -10, -9%, -8%
[13] COC(=O)CCCNC(=O)c1ccc2oc(CCCc3ccccc3)nc2c1
→ ?, nt, 9%, -29%
[14] CCC1CN(C)C2Cc3c([nH]c4ccccc34)C(=O)CC1C2C(=O)OC (stereo unspecified)
→ -1.8%, -1, -8%, 2%
[15] COc1ccc(S(=O)(=O)Nc2nc3c(s2)CCCC3)cc1
→ 3.0%, 3, 1%, -9%
[16] CCCC(=O)Nc1ccc(N2CCN(C(=O)c3cccs3)CC2)cc1
→ -4.0%, 11, -3%, 0%
[17] N/C(=N\OC(=O)CCCC(=O)O)c1ncc(C(F)(F)F)cc1Cl
→ 0.3%, 4, -6%, 6%
[18] CCCCOc1ccccc1NC(=O)CSc1nnnn1C(C)(C)C
→ -0.6%, 1, 29%, -15%
[19] CC(=O)C1=C(O)C(=O)N(Cc2ccccc2)C1c1cccc([N+](=O)[O-])c1 (stereo unspecified)
→ 0.9%, nt, -5%, -1%
[20] COc1ccc(CNC(=O)C(=O)NC2CCC(C)CC2)cc1 (stereo unspecified)
→ 0.0%, -1, 0%, -6%
[21] Cc1c(NS(=O)(=O)c2cc(C(=O)OCC(=O)N3CCC(C)CC3)ccc2Cl)c(=O)n(-c2ccccc2)n1C
→ -0.4%, -4, 14%, 1%
[22] COCCCn1c(=N)c(C(=O)NCc2ccc3c(c2)OCO3)cc2c(=O)n3cccc(C)c3nc21
→ ?, nt, -18%, nt
[23] O=C(O)c1cccc(-n2cccc2/C=C2\NC(=O)N(Cc3ccc(F)cc3)C2=O)c1
→ -3.8%, -28, -19%, -9%
[24] CN1c2ccsc2C(O)=C(C(=S)Nc2ccc(F)c(Cl)c2)S1(=O)=O
→ ?, -2, ?, -13%
[25] O=S(=O)(Nc1cccc2ccccc12)c1ccccc1
→ -2.6%, -5, 15%, -4%
[26] Cc1ccc(S(=O)(=O)N2CCCCC2)cc1C(=O)NCC1CCCO1 (stereo unspecified)
→ -3.1%, nt, -8%, -10%
[27] COC(=O)CSc1nc(C)cc(N2CCOCC2)n1
→ -1.5%, -11, -16%, -2%
[28] CNC(=S)N1N=C(c2ccc(Br)cc2)CC1c1ccc(N(C)C)cc1 (stereo unspecified)
→ ?, 1, ?, -12%
[29] CC1(c2ccc(OCC#N)cc2)C=C(c2ccc(OCC#N)cc2)n2nc(C(F)(F)F)nc2N1 (stereo unspecified)
→ -9.0%, -24, -1%, ?
[30] COc1cc(NC(=O)c2cccc([N+](=O)[O-])c2C)ccc1NC(=O)c1ccco1
→ -1.8%, 3, 5%, -44%
[31] CC(C)c1ccc(C(C)NCCS(=O)(=O)c2ccc(Cl)cc2)cc1 (stereo unspecified)
→ 4.0%, nt, 0%, 7%
[32] CCc1noc(C)c1C(=O)Nc1sc(C(=O)N(C)C)c(C)c1C#N
→ 0.0%, nt, -1%, nt
[33] COc1ccc(-c2cc(C(F)(F)F)nc(SCc3cccc(C(=O)O)c3)n2)cc1
→ -1.6%, -3, 2%, -1%
[34] COC(=O)COc1ccc2c(=O)c(Oc3ccccc3)c(C)oc2c1
→ -0.5%, -4, 1%, -10%
[35] CCOc1nc(NC(C)C)nc(NC(C)C)n1
→ 3.3%, 0, 6%, -5%
[36] CC(=O)Nc1ccc(C2(c3ccc(NC(C)=O)cc3)NC(=O)c3ccccc32)cc1
→ -1.7%, nt, 14%, 0%
[37] O=C(Nc1cc(S(=O)(=O)N2CCOCC2)ccc1N1CCCC1)C1COc2ccccc2O1 (stereo unspecified)
→ -2.0%, 1, -10%, 0%
[38] O=C(Nc1cc(Cl)ccc1N1CCCCC1)c1cccs1
→ 4.5%, 6, -7%, 0%
[39] CCOC(=O)c1cnn(-c2cc(C)nc3c(-c4ccccc4)c(C)nn23)c1N
→ -1.2%, 0, 11%, 3%
[40] COc1ccc(C)cc1NS(=O)(=O)c1cn(C)c(=O)n(C)c1=O
→ 1.0%, -3, 0%, -1%
[41] Cc1ccn2cc(CCNC(=O)C3CC=CCC3C(=O)O)nc2c1 (stereo unspecified)
→ -1.6%, 2, -1%, -28%
[42] CCc1ccc(C2=NNC(=Nc3c(C)n(C)n(-c4ccccc4)c3=O)SC2)cc1
→ -1.2%, 2, -21%, -15%
[43] Cc1cc(S(=O)(=O)NCc2ccco2)c(C)cc1Cl
→ 0.5%, nt, -1%, -8%
[44] COc1ccccc1NC(=O)Nc1c(C)n(C)n(-c2ccccc2)c1=O
→ -2.9%, 3, 1%, -5%
[45] COc1ccccc1CC(=O)Nc1ccc(O)cc1C(=O)O
→ 1.3%, -3, 1%, -3%
[46] NS(=O)(=O)c1ccc(CNC(=O)c2ccccn2)cc1
→ -1.8%, ?, -1%, -7%
[47] N=c1n(CCN2CCCCC2)c2ccccc2n1CC(=O)c1ccc(Cl)c(Cl)c1
→ 1.0%, -17, -6%, 1%
[48] Cc1noc(C)c1C(=O)OCC(=O)N1CCc2ccccc21
→ 0.3%, nt, -2%, nt
[49] C/C=C/c1ccc(OCCCN2C(=O)NC(C)(C)C2=O)c(OC)c1
→ 1.6%, 9, -9%, -29%
[50] Cc1[nH]c2ccccc2c1/C=N/NC(=O)c1ccc(N)cc1
→ -1.1%, nt, 6%, -16%
[51] CCC(C)[C@H](NC(=O)N1CCn2c1nc1ccccc12)C(=O)NCc1ccccc1 (stereo partly specified)
→ -0.9%, nt, 11%, 0%
[52] O=C(CSc1ccccc1C(=O)O)NC1CCCCCCC1
→ 8.5%, 0, -7%, -12%
[53] COc1ccccc1NC(=O)COC(=O)CCc1ccc(S(=O)(=O)N2CCOCC2)cc1
→ 0.1%, nt, -1%, nt
[54] COc1ccc(NC(=O)CSc2nnc(C3CC3)n2C)cc1S(=O)(=O)N1CCOCC1
→ 0.1%, nt, -9%, nt
[55] COc1cc(OC)c2c(-c3ccccc3)cc(=O)oc2c1
→ 1.1%, nt, 2%, -10%
[56] Cn1cc(Cl)c(C(=O)OCC(=O)Nc2cccc(Cl)c2)n1
→ 2.1%, nt, 10%, 7%
[57] Cc1ccc(C)c(NC(=O)c2ccc3nccnc3c2)c1
→ 0.5%, nt, 18%, -12%
[58] COc1ccc(Nc2cc(C)nc3ccc(OC)cc23)cc1
→ 4.5%, nt, 3%, 24%
[59] CC(=O)c1cccc(CN2CCN(Cc3ccc(F)cc3)C(CCO)C2)c1 (stereo unspecified)
→ 2.2%, -1, -12%, -5%
[60] COc1ccc(CC(=O)N2CCN=C2SCc2cccc([N+](=O)[O-])c2)cc1
→ 2.4%, -22, 7%, 0%

Looked up above.
Under miR-21 reporter, entry 43 reads -8%
Under miR-21 reporter, entry 27 reads -2%
Under Rango-impB inh, entry 48 reads 0.3%

Going on with the list.
The line under a structure holds: Rango-impB inh, GLA inh pH 4.5, Rango release inh, miR-21 reporter
[61] O=C(COC(=O)CCc1nc2ccccc2c(=O)[nH]1)NCc1ccc(F)cc1
→ 0.3%, 9, -12%, -1%
[62] CC(CN1CCOCC1)OC(=O)CCc1ccccc1 (stereo unspecified)
→ -1.5%, -5, -18%, 1%
[63] CCc1c(C)nc(SCC(=O)NNC(=O)Cc2ccc(OC)cc2)[nH]c1=O
→ 0.2%, -4, 14%, 0%
[64] O=C(c1cc2c(ccc3ccccc32)oc1=O)N1CCCC1
→ -1.4%, ?, -3%, -18%
[65] Cc1c(C)c2ccc(OC(C)C(=O)NCCc3c[nH]c4ccccc34)cc2oc1=O (stereo unspecified)
→ -3.9%, nt, -5%, 2%
[66] O=C(NCc1ccc2c(c1)OCO2)c1cccc(F)c1
→ 4.0%, 3, 2%, -15%
[67] O=C(Cn1c(SCC(=O)N2CCCc3ccccc32)nc2ccccc21)N1CCCC1
→ 2.3%, -5, -10%, -2%
[68] CCCCN(CCO)c1ncnc2sc(-c3ccccc3)cc12
→ 1.3%, nt, 0%, -20%
[69] CCOc1ccc(C2c3[nH]c4ccccc4c3C[C@H]3C(=O)N(C4CCN(Cc5ccccc5)CC4)CC(=O)N23)cc1OC (stereo partly specified)
→ 0.3%, nt, -14%, 5%
[70] CCOC(=O)c1cc(-c2ccc(F)cc2)n(CCC(=O)NC2CCN(Cc3ccccc3)CC2)c1C
→ 0.0%, -12, -4%, 9%
[71] COCC1CCCCN1C(=O)c1cccc(OC2CCN(C(=O)C3CC3)CC2)c1 (stereo unspecified)
→ 0.5%, nt, 1%, -33%
[72] Cc1onc(-c2ccccc2Cl)c1C(=O)NCc1ccc(F)cc1
→ -0.2%, nt, -17%, -6%
[73] COc1ccc(C)cc1NC(=O)CO/N=C(\N)CC(=O)Nc1ccccc1OC
→ 0.0%, nt, -12%, nt
[74] COc1cc2c(cc1OC)C1(Nc3c-2c(Cc2ccccc2)nn3-c2ccccc2)C(=O)Nc2ccccc21 (stereo unspecified)
→ ?, -7, ?, -14%
[75] CN(C)CCNC(=O)Cn1ccc2cc(S(=O)(=O)N3CCCCC3)ccc21
→ 4.0%, nt, -7%, 0%
[76] CC(Oc1ccc(C(C)(C)C)cc1)c1ccnc2nc(/N=C/N(C)C)nn12 (stereo unspecified)
→ 0.0%, -2, -3%, -34%
[77] CC(C)C(c1nnnn1Cc1ccco1)N1CCC(C(N)=O)CC1 (stereo unspecified)
→ -1.4%, 4, -7%, 0%
[78] Cc1c(NC(=O)Oc2ccccc2)sc(=S)n1C
→ -3.0%, -3, -5%, -3%
[79] CN(C)CCCC1(O)c2ccccc2CCc2ccccc21
→ -2.2%, 4, 21%, -4%
[80] OCCC1CN(Cc2cccn2-c2cccnc2)CCN1Cc1ccc(F)cc1 (stereo unspecified)
→ -1.2%, 6, -12%, -2%
[81] COc1ccc(-c2csc(N(CCc3ccc(OC)c(OC)c3)C(=O)COc3ccccc3)n2)cc1
→ -1.5%, 2, -9%, -16%
[82] COc1ccc(NC(=O)c2nnn(Cc3ccc(SC)cc3)c2N)c(OC)c1
→ 0.3%, 5, -14%, -17%
[83] Cc1ccc(C(=O)/C=C2\NCCNC2=O)cc1
→ -0.1%, 2, 1%, -23%
[84] COC(=O)C(C(=O)OC)=C(/C=C/N(C)C)N(C)C
→ 0.3%, -5, -3%, 0%

Reformatted as labelled records: 2 of the compounds above
82	COc1ccc(NC(=O)c2nnn(Cc3ccc(SC)cc3)c2N)c(OC)c1
  Rango-impB inh: 0.3%	GLA inh pH 4.5: 5	Rango release inh: -14%	miR-21 reporter: -17%
83	Cc1ccc(C(=O)/C=C2\NCCNC2=O)cc1
  Rango-impB inh: -0.1%	GLA inh pH 4.5: 2	Rango release inh: 1%	miR-21 reporter: -23%
